VDR inhibitor: Inhibitors of the vitamin D receptor (VDR): qHTS | Vitamin D3 receptor (Homo sapiens), P11473 | Potency, µM, for inactives: max response, negative = inhibition, hits mostly inhibitors | VDR-SRC2-3 peptide fluorescence polarization, 2 h | 400,000 tested, 0.93% active; active = well fitted inhibition curve with a large enough effect; inconclusive = small, poorly fitted or top-dose-only effect, or another doubt; inactive = no such curve, though single readings can be large or run the other way; also: series mostly up to about 120 µM
Target sequence (P11473 whole entry, looked up): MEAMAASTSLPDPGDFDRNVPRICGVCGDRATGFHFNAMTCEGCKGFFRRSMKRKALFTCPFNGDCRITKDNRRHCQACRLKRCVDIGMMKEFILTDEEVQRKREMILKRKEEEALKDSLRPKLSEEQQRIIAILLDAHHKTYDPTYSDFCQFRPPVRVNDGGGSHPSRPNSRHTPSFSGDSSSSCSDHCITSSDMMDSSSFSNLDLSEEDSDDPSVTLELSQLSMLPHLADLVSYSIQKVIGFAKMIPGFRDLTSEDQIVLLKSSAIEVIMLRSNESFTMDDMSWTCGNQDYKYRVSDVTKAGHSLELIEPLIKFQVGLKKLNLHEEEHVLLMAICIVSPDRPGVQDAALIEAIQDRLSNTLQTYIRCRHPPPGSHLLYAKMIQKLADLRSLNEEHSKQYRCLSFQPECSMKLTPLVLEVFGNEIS
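Reagent solutions, kept cold and dark, are dispensed first; compounds are then pinned in at 23 nl, plates briefly spun, and incubated 2 h at ambient temperature. Inhibition of VDR–SRC2-3 peptide binding is read by fluorescence polarization.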
* = called active by the depositor; ? = inconclusive; & = joins results of further samples; [ ] = dose if it differs, or a comment. % is scaled to controls: 0 for no effect and ±100 for the full control effect; potency is read from the fitted curve at half-maximal effect.

VDR inhibitor | molecule
-2.0% | Cc1ccc(C#N)c(SCc2ccccc2F)n1
1.2% | O=C(N/N=C\c1ccc(COc2ccc([N+](=O)[O-])cc2)o1)c1cccc(Cl)c1
8.8% | Cc1oc2c(c1C(=O)NCc1ccccc1F)C1=NCCN1C=N2
-5.3% | Clc1ccc(C2=Nn3c(nnc3-c3cc(-c4ccccc4)n[nH]3)SC2)cc1
-9.5% | COc1cccc(Nc2cc(C)nc3nc(C)nn23)c1
-0.1% | CCCCSc1nc2c(cnn2-c2ccccc2)c(=O)n1N
-1.1% | Cc1ccc2c(c1)c1c(n2CC(O)CN2CCCCC2C)CCCC1 (stereo not given)
8.6% | COc1ccc(/C=N/NC(=O)c2cccc([N+](=O)[O-])c2)cc1OS(=O)(=O)c1ccc(C)cc1
3.9% | CCOc1ccc(-c2cc(CCCC(=O)NCc3cccnc3)no2)cc1
-6.6% | Cc1ccc(S(=O)(=O)Oc2ccc3c(c2)O/C(=C\c2cccnc2)C3=O)cc1
1.3% | O=C(Nc1ccc(F)cc1)c1ccc(-n2cncn2)c([N+](=O)[O-])c1
-7.3% | CC(C)n1c(SCC(=O)Nc2ccc(N3CCOCC3)cc2)nnc1-c1ccco1
-3.6% | O=C(O)CN=C1CC(c2ccccc2)CC(=O)/C1=C(/O)CCCN1C(=O)c2ccccc2C1=O (stereo not given)
-16.4% | O=C(NCc1ccco1)c1cc2sccc2n1Cc1ccccc1
4.1% | CCOC(=O)c1nnc(-c2ccccc2)nc1N1CCSCC1
11.1% | Cc1ccc(CCNC(=O)C2CCCN(S(=O)(=O)c3cccs3)C2)cc1 (stereo not given)
-19.7% | COc1ncc2nc(-c3ccccc3)c(=O)n(C3CC3)c2n1
-21.4% | CCC(C)Sc1cccc(-c2nc3cc(C)ccn3c2NCc2ccccc2)c1 (stereo not given)
-8.3% | CCCCn1c(N)c(N(CC(C)C)C(=O)C2CCN(c3ncnc4sc(C)c(C)c34)CC2)c(=O)[nH]c1=O
-4.2% | CN(C)/C(=N\S(=O)(=O)c1ccccc1)c1ccc(F)cc1
5.1% | CCOc1cc(/C=C2/NC(=O)N(CC(=O)Nc3cccc(C)c3)C2=O)ccc1O
-8.3% | CC1=C(C(=O)NCc2ccc(Cl)cc2)C2(CCCCCC2)OC1=O
-0.3% | OCCN(CC#CC(O)(c1ccccc1)c1cccc(F)c1)CCO (stereo not given)
-15.3% | COc1ccc(C(=O)N/N=C(\C)c2ccccn2)cc1OC
10.4% | Cc1ccc(CN2CCN(Cc3nc4c(s3)CCCC4)CC2CCO)cc1 (stereo not given)
10.7% | C/C(=N\NC(=O)C1CC1)c1ccc(OC(F)F)cc1OC(F)F
-19.2% | CCCCN(C(=O)C1CCC(CNS(=O)(=O)c2cccc3nsnc23)CC1)c1ccccc1 (stereo not given)
-7.0% | O=C(NCCc1ccccc1)c1cc(-c2ccc(Cl)cc2)on1
-12.4% | O=C(NCc1ccccc1)c1ccc(OCC2CCCO2)cc1 (stereo not given)
54.6%[activator] | Cc1ccc(NC(=O)c2ccc(S(=O)(=O)NCC3CCCO3)cc2)cc1 (stereo not given)
-3.6% | COc1cccc(CN(C)C(=O)CC2C(=O)NCCN2C2Cc3ccccc3C2)c1 (stereo not given)
? | CCN(CC(=O)NCCC1=CCCCC1)S(=O)(=O)c1ccccc1
-1.7% | COc1cc(CNCCc2ccccc2)ccc1OCc1ccc(Cl)nc1
-14.5% | Cc1ccc(-c2nc(C=Nc3ccc(O)cc3)c(O)o2)cc1
-17.4% | O=C(CN1CCc2ccccc2C1)Nc1ccccc1C(=O)NC1CC1
4.6% | O=C(O)c1ccc(N=Nc2c(-c3ccccc3)[nH]oc2=O)cc1
-9.4% | COc1ccc2cc3cc(C(=O)N4CCN(c5cccc(Cl)c5)CC4)sc3nc2c1
-12.3% | COc1ccc(-c2nnc3ccc(SCC(=O)NCc4ccco4)nn23)cc1OC
13.2% | Cc1cc2c3nonc3ccc2n1C
-0.8% | COc1nc(OCCNC(C)=O)nc(N(C)C)n1
-25.3% | CCCc1cc(-c2n[nH]c(=S)n2CC)c2ccccc2n1
-7.7% | CN(C)S(=O)(=O)Oc1ccsc1C(=O)Nc1cccc(Cl)c1Cl
-24.8% | COc1ccccc1NC(=O)/C(C#N)=C/c1cccn1C
-7.4% | COC(=O)NCc1c(C)nn(-c2ccccc2)c1-n1cccc1
-10.7% | O=C(NNc1cc(N2CCCC2)nc(N2CCCC2)n1)c1ccc([N+](=O)[O-])cc1
-9.3% | O=C(NCCC1=CCCCC1)c1ccc2c(c1)N(Cc1ccccc1)C(=O)c1ccccc1S2=O (stereo not given)
2.3% | CCOc1cccc2cc(C(=O)Nc3cc(C)on3)c(=O)oc12
-6.9% | O=S(=O)(CS(=O)(=O)c1ccc(Cl)cc1)c1ccc(Cl)cc1

Of the compounds above, two contain a COOH group:
VDR inhibitor | molecule
-3.6% | O=C(O)CN=C1CC(c2ccccc2)CC(=O)/C1=C(/O)CCCN1C(=O)c2ccccc2C1=O (stereo not given)
4.6% | O=C(O)c1ccc(N=Nc2c(-c3ccccc3)[nH]oc2=O)cc1

Following part.
VDR inhibitor | molecule
7.6% | Cc1ccc(OCC(=O)N2CCCc3ccccc32)cc1
1.5% | Cc1ccc2cc(CCNC(=O)C(=O)c3c[nH]c4ccccc34)c(=O)[nH]c2c1
2.5% | NN=C(NN=Cc1ccccc1)c1ccccc1
-6.0% | Cc1noc(C(=O)N2CCN(c3ccccc3)CC2)c1Cl
-7.3% | Cc1ccc(C)c(OCCOCCN2CC(C)OC(C)C2)c1C (stereo not given)
-0.8% | COc1ccccc1CCNC(=O)C(=O)NCC1OCCCN1S(=O)(=O)c1ccc(F)cc1C (stereo not given)
6.4% | C/C(CCC(C)C)=N\NC(=S)Nc1cc(S(=O)(=O)N2CCOCC2)ccc1N1CCOCC1
79.4µM* | O=C(NCCCO)c1ccc2nc(-c3ccco3)c(-c3ccco3)nc2c1
-9.2% | S=c1[nH]nc(-c2ccccn2)n1/N=C/c1ccc(Cl)cc1
? | COc1ccc(S(=O)(=O)/N=C2\C=C(NS(=O)(=O)c3ccccc3)C(=O)c3ccccc32)cc1
8.0% | Cn1c(N)c(Sc2ccc(F)cc2)c(=O)n(C)c1=O
-8.1% | Cc1nn(-c2ccccc2)c(Cl)c1C(=O)NC1CCCCC1
-18.5% | COc1ccc(S(=O)(=O)n2nc(OC(=O)C3CCCCC3)cc2N)cc1
-8.5% | O=S(=O)(NCc1ccccn1)C(F)(F)F
-2.1% | CCCCOc1ccc(C(=O)N/C(=C/c2cccc([N+](=O)[O-])c2)C(=O)O)cc1
-26.1% | CC1CN(CC(=O)NN=C(c2ccccc2)c2ccccc2)CC(C)O1 (stereo not given)
-10.8% | Cc1cc(C)n2nc(CNS(=O)(=O)c3ccc(CC(C)C)cc3)nc2n1
-13.6% | CCCCn1c(Oc2ccc(C(=O)OC)cc2)nc2c1c(=O)n(C)c(=O)n2C
-12.5% | Cc1cc(Cl)ccc1OCC(=O)Nc1ccncc1
-1.8% | Cc1ccccc1C(=O)c1c[nH]c(C(=O)N=CN(C)C)c1
14.1µM* | CCCc1nnc(NC(=O)c2nc(S(=O)(=O)Cc3cccc(C)c3)ncc2Cl)s1
4.7% | CC(C)Oc1ccc(C(=O)OCC(=O)NCCNC(=O)COC(=O)c2ccc(OC(C)C)cc2)cc1
-9.6% | COc1ccc(C(=O)NCCn2cc(SCC(=O)NCC3CCCO3)c3ccccc32)cc1 (stereo not given)
9.0% | O=C(c1ccccc1)C1CCN(C(=O)c2ccco2)CC1

Some of these compounds in order of the VDR inhibitor value, highest first:
Molecule,VDR inhibitor
O=C(c1ccccc1)C1CCN(C(=O)c2ccco2)CC1,9.0%
COc1ccccc1CCNC(=O)C(=O)NCC1OCCCN1S(=O)(=O)c1ccc(F)cc1C (stereo not given),-0.8%
COc1ccc(C(=O)NCCn2cc(SCC(=O)NCC3CCCO3)c3ccccc32)cc1 (stereo not given),-9.6%
Cc1cc(Cl)ccc1OCC(=O)Nc1ccncc1,-12.5%
O=C(CN1CCc2ccccc2C1)Nc1ccccc1C(=O)NC1CC1,-17.4%

Carrying on.
VDR inhibitor | molecule
-2.3% | O=C(NCC1COc2ccccc2O1)C1CCN(S(=O)(=O)c2cccc3nsnc23)CC1 (stereo not given)
-1.7% | CCN(CC)S(=O)(=O)c1ccc2c(c1)c(=O)c(C(=O)NCCN(C)CCc1ccccc1)cn2C
0.3% | COc1ccc(C(=O)N2CCOCC2)cc1Br
29.4% | CC(C)CNC(=O)C(=O)N/N=C/c1cccs1
8.4% | CCOC(=O)c1scc(-c2ccc(C)cc2)c1S(=O)(=O)N1CCN(c2ccccc2)CC1
-14.2% | Cc1cc(C)n(CC(C)NC(=O)c2cc(COc3ccc(F)c(F)c3)on2)n1 (stereo not given)
-1.8% | CC(C)C(NCc1c(Cl)cccc1Cl)C(=O)O (stereo not given)
-19.7% | O=C(Cn1c(S(=O)(=O)Cc2ccccc2)nc2ccccc21)N1CCCCC1
-9.6% | CCCSc1nnc2n(-c3ccccc3OC)c(=O)c3c4c(sc3n12)CCC4
-15.9% | COc1ccc(NS(=O)(=O)c2cc(C(=O)N3CCN(C/C=C/c4ccccc4)CC3)ccc2C)cc1
-0.5% | CO/N=C/C(C#N)=C/c1ccc(OC)cc1
6.4%&4.7% | COc1ccccc1C(=O)Nc1nnc(S(=O)(=O)N2CCN(c3ccc(F)cc3)CC2)s1
-1.8% | CC(C)c1ccc(NC(=O)Cn2nnc(C(=O)NCc3cccs3)c2N)cc1
-8.9% | COC(=O)c1ccc(C2c3c(-c4ccc(Br)cc4)n[nH]c3C(=O)N2c2ccc(Cl)cc2)cc1 (stereo not given)
? | C[C@H](C(=O)CC(=O)OC(C)(C)C)[C@H](O)c1ccc(C(F)(F)F)cc1
-1.4% | CCOC(=O)C1=C(C)N(C)C(C)=C(C(=O)OCC)C1c1ccccn1
12.3%&1.6% | CCN(CC)CCNC(=O)c1cc2c(-c3cccc(OC)c3)nn(C)c2s1
12.6% | Fc1ccc(CN2CCC(Cc3ccccc3)CC2)cc1F
0.0% | CNc1snc(C)c1C(=O)OCC(=O)c1cc(F)ccc1OC
-9.2% | CN(Cc1ccccc1F)C(=O)c1ccc(Oc2ccccc2)cc1
4.0% | CC1CN(S(=O)(=O)c2ccc(C(=O)Nc3nnc(-c4ccccn4)o3)cc2)CC(C)O1 (stereo not given)
-5.1% | O=C(NC1CCCC1)C1CCN(C(=O)c2ccccc2Cl)CC1
-6.7% | CC1CC(C)CN(S(=O)(=O)c2cc3c(cc2Cl)NC(=O)CO3)C1 (stereo not given)
-9.1% | Cn1c(=O)c2[nH]c(C=Cc3ccc4c(c3)OCO4)nc2n(C)c1=O
1.3% | COC(=O)CSc1nsc(SCC(=O)OC)c1C#N
-2.2% | COc1cc([N+](=O)[O-])ccc1NC(=O)CCCOc1cccc(C)c1C
-3.4% | COc1cc(/C=N/Nc2cc(C)nc(NS(=O)(=O)c3ccccc3)n2)ccc1O
20.4% | O=C(Nc1ccc(Cc2ccncc2)cc1)c1ccc(N2CCOCC2)c([N+](=O)[O-])c1
11.3% | O=c1[nH]ncn1-c1cccc(C(F)(F)F)c1
3.2% | COc1cccc2c(=O)n(CC(=O)Nc3ccccc3)ccc12
4.5% | CCCN1C(=O)c2ccc(C(=O)Nc3cc(C)ccc3O)cc2C1=O
-0.9% | CCN(C(=O)COC(=O)c1ccc2c(c1)OCO2)c1ccccc1
-12.7% | CCN(CC(=O)Nc1cc(Cl)ccc1C)C(=O)CN1C(=O)NC2(CCCC2)C1=O
17.5% | Cc1cc(OCCCC(=O)NC2=NCCS2)ccc1Cl
-1.1% | O=C(O)c1cc(-c2ccc3c(c2)OCO3)nc2ccccc12
-0.9% | Cc1c(C(=O)Nc2cccc3cccnc23)oc2ccccc12
-7.2% | Cc1c(CCC(=O)O)c(=O)oc2cc3oc4c(c3cc12)CCCC4
-2.1% | CS(=O)(=O)Nc1ccccc1C(=O)c1ccccc1
-20.2% | OC(c1cc(C(F)(F)F)nc2c(Cl)cc(Cl)cc12)C1CCCCN1 (stereo not given)
-9.7% | CCCCNC(=O)CN(c1ccc(Cl)c(Cl)c1)S(C)(=O)=O
17.6% | Cc1nn2c(NCC(C)C)c3c(nc2c1-c1ccccc1)CCC3
-1.0% | CC(C)/C(=N\NC(=O)Nc1ccccc1)c1ccccc1
-6.1% | Nn1c(SCC(=O)NCc2ccccc2)nnc1C1CC1
12.0% | Cc1cc(C)n(-c2cc(N3CCN(S(=O)(=O)c4ccc5ccccc5c4)CC3)ccc2[N+](=O)[O-])n1
-7.3% | CCOc1cc(C(=S)N2CCOCC2)cc(Br)c1OS(=O)(=O)c1ccccc1
27.2% | CC(=O)N1CCN(CC(=O)Nc2ccc(C)c(F)c2)CC1
-8.1% | O=C(N/N=C/c1ccc(O)cc1O)c1ccncc1
8.6% | COc1cccc(NC(=O)Cn2cc(S(=O)(=O)Cc3ccccc3F)c3ccccc32)c1
3.7% | COC(=O)c1c(N)sc(Cc2ccccc2)c1C
26.2% | O=C(C1CC(=O)N(c2ccc(F)cc2)C1)N1CCN(c2ccc(F)cc2)CC1 (stereo not given)
-14.1% | Cc1ccc(CN(Cc2ccc(C)o2)C(=S)NCC(=O)O)cc1
2.6% | COc1ccc(CNC(=O)C(c2cccs2)N(C(=O)c2csnn2)C2CC2)cc1 (stereo not given)
3.3% | N/C(=N\OC(=O)c1ccc(Cl)cc1Cl)c1ccc(Cl)cc1
2.5% | Cc1cn(CC(=O)NCc2ccc3c(c2)OCO3)c(=O)[nH]c1=O
5.2% | O=C(O)CS(=O)(=O)CC(=O)NCc1cccc(C(F)(F)F)c1

Bioassay records as filed in PubChem.

Only part of the results is shown; the hit share may differ from the screen's.
